# High-throughput results deposited in PubChem BioAssay by several laboratories.
# Env fusion inh: HIV envelope-mediated fusion inhibition; HeLa-JRFL Env/CEM21 cell fusion, luciferase; inhibition, % at 12.3 µM; actives 1.1% (n = 360,000); AID 651610;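 active = mean replicate inhibition score of at least 50 and every replicate individually at or above 50; inconclusive = only one of the two criteria met; inactive = mean below 50 and not all replicates reaching 50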;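 note: 0% = plate neutral controls and 100% = maraviroc near 300 nM; one replicate is shown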
# eIF4H inh: inhibitors of RNA binding by human eIF4H. eIF4H fluorescence polarization binding assay. inhibition, % at 35 µM. Q15056. actives 0.94% (n = 290,000). AID 2012;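 active = 50% or more with normal probe brightness, or confirmed in later tests; inconclusive = above 50% with abnormal brightness, or retests that disagree; inactive = below 50% or failed in later tests; about a fifth of its hits are not listed in these tables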;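 note: calls also rest on retests at 20 µM and on dose response follow-up; 0% = protein and probe with vehicle and 100% = probe without protein; strong numbers were not always called active; many hits fall short of the cut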
# Yeast UUG start: alters start codon recognition fidelity in yeast; S. cerevisiae UUG-firefly luciferase reporter, luminescence/redox ratio; activity score, % at 18.7 µM; actives 0.13% (n = 350,000); AID 602363;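 active = replicate mean at a twofold rise or more, about +100% in these data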;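 note: firefly luciferase made from a UUG start codon reports start codon fidelity; reporter light over untreated wells divided by growth signal over untreated wells; some hits fall short of that in this replicate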
# CSC inhib: blocks cancer stem cells. inhibition, % at 7.5 µM. cancer stem cell-like cells viability, luminescence. actives 1.1% (n = 300,000);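 active = mean at 75% or more and at least half the replicates too; inconclusive = mean and replicates disagree; tested in HMLE shEcad cells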;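 note: 0% = median of negative and 100% = median of positive control wells; the first replicate is given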
# PABP FP inh: PABP-poly(A) binding inhibition | P11940 | PABP-poly(A) RNA binding, fluorescence polarization | inhibition, % at 35 µM | actives 1% (n = 290,000) | AID 2014;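 active = 50% or more with normal probe brightness, or confirmed in later tests; inconclusive = above 50% with abnormal brightness, or retests that disagree; inactive = below 50% or failed in later tests; about a fifth of its hits are not listed in these tables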;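 note: calls also rest on retests at 20 µM and on dose response follow-up; controls were probe without protein and protein plus probe with vehicle; some compounds called inactive have numbers as strong as hits; many hits fall short of the cut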
# Target sequence (P11940 whole entry, looked up): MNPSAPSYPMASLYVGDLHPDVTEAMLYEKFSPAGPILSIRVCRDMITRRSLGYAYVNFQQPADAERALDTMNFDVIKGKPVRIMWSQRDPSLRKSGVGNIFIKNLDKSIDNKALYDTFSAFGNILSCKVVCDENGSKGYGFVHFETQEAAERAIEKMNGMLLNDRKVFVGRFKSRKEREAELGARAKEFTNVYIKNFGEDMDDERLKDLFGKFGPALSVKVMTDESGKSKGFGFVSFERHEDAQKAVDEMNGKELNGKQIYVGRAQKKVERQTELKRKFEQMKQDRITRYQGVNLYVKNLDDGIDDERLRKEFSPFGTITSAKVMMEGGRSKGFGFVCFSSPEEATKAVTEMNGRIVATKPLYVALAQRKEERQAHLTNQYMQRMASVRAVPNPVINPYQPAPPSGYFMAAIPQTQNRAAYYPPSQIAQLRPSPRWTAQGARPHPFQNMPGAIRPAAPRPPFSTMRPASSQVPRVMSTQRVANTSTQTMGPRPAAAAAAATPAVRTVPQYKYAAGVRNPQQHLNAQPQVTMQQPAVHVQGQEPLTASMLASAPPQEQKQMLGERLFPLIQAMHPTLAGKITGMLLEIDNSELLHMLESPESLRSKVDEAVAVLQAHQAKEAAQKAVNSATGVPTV
# MT1-MMP act inh: MT1-MMP (human) activation inhibition; GFP/RFP ratio change, % at 20 µM; AID 651647; HT1080 RFP-PRO-GFP cells, GFP/RFP ratio fluorescence, overnight; percent of plate control window, DMSO zero; P50281; actives 0.061% (n = 360,000);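 active = GFP/RFP ratio change of at least 30% with cell ATP level not reduced by more than half and red fluorescence within 50% of control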; note: strong numbers were not always called active
#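 Assay system: HT1080 RFP-PRO-GFP cells. Benchmarks: DMSO vehicle wells and RFP-L50D-GFP reporter cell wells. Times: overnight cell settling, then overnight compound exposure, 37 °C, 5% CO2. Compound: 20 µM single dose, 1% DMSO. Read-out basis: GFP/RFP fluorescence ratio.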
# Rce1 inhib: inhibitors of yeast Ras-converting enzyme; actives 0.27% (n = 290,000); AID 2563; Q03530; yeast membranes, quenched prenylated peptide cleavage fluorescence; calls only;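 active = fall in fluorescence gain of 50% or more versus controls, with final raw signal at or below 3038400; inconclusive = same 50% fall but final raw signal above 3038400; inactive = fall in fluorescence gain under 50%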;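 note: plate controls were neutral control wells for no effect and wells lacking membranes for full effect; tested at 10 µM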
# Target sequence (Q03530 whole entry, looked up): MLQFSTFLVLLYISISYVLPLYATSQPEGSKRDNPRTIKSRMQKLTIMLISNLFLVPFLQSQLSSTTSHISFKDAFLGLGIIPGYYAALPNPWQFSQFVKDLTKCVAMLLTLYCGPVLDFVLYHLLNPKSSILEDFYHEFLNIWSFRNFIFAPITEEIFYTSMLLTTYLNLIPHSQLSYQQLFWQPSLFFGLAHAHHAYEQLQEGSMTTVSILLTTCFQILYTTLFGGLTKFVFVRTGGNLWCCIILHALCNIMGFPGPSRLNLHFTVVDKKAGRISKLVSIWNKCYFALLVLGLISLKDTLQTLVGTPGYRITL
# MT1-MMP act inh RFP: further read-out of MT1-MMP act inh, marked with its call; RFP signal change, %; measured here: RFP expression control read;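 0 = vehicle wells; hits needed this value within 50% of zero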
# * marks the source's active call; other numbers are inactive results; i = inactive; ? = inconclusive; . = no result given. This is a subset (hit frequency here may not be typical).
SMILES,PABP FP inh,CSC inhib,MT1-MMP act inh,Rce1 inhib,Yeast UUG start,MT1-MMP act inh RFP,Env fusion inh,eIF4H inh
O=C(O)CSc1ccc(Oc2ccc(SCC(=O)O)cc2)cc1,4,-7,0,i,-6,4,5,-6
COc1ccc(CCCc2n[nH]c(=S)o2)cc1,1,13,3,i,-22,5,-11,1
C/C=C/C=C\C(=O)Nc1cccc(C2=NOC3(C2)C[C@H](C(N)=O)N(C(=O)/C=C/C)C3)c1 (some centres not stated),5,-6,2,i,1,1,16,-2
CNC(=O)c1nnn(Cc2ccccc2)c1NC(=O)C(F)(F)F,-2,-16,-5,i,-11,7,.,-6
Cc1cc(C)c(NC(=O)Cn2ncc3ccccc32)c(C)c1,6,4,0,i,-10,2,-8,-5
CCn1c(C)nc2cc(S(N)(=O)=O)ccc21,5,.,14,i,.,9,-21,-1
CSCC(=O)N1CCC(Oc2cccc(C(=O)NCc3ccccn3)c2)CC1,-11,-4,2,i,-16,-1,-10,-4
COc1cccc(OCc2cc(C(=O)NCc3ccc4c(c3)OCO4)no2)c1,5,33,1,i,1,1,-20,-8
CCc1c(O)nc(SCC(=O)Nc2nc3ccccc3s2)n(-c2ccccc2)c1=O,0,.,2,i,-25,2,-4,-9
CC1(C)C(=O)Nc2ccccc2N1C(=O)COC(=O)c1ccc(NC(N)=O)cc1,.,.,9,.,4,0,1,.
COc1ccc(CCNC(=O)c2ccc3nc(N4CCOCC4)sc3c2)cc1OC,-18,-3,-1,i,-13,1,-22,-15
COc1ccc(Cc2nc3ccc(C(=O)N4CCCCC4CO)cc3o2)cc1OC (configuration not stated),.,.,-6,.,-2,-16,19,.
Cc1cc(C)cc(N(CCC#N)C(=O)COC(=O)c2nc3nc(C)cc(C)n3n2)c1,.,-5,-7,i,-2,2,12,.
Cc1cc(=O)oc(C)c1C(=O)n1nc(C)c2c1C[C@@H]1[C@H]2C1(C)C,2,-11,8,i,5,5,.,-2
COc1ccc(C2CC2C(=O)c2ccccn2)cc1 (configuration not stated),-9,-11,0,i,.,1,-20,-1
CCOc1cccc(C(=O)Nc2ccccc2N2CCN(C(=O)C(C)C)CC2)c1,2,-14,14,i,-33,2,-10,-10
COc1ccccc1Oc1nc(-c2cccnc2)nc2ccccc12,-1,-4,-12,i,.,-6,2,-2
CCOC1OC(=O)C(Cl)=C1Nc1ccc(C)cc1C (configuration not stated),6,-2,-1,i,.,1,-11,-11
C=CCNc1nc(C(F)(F)F)nc2c1nnn2Cc1ccccc1Cl,8,-5,5,.,5,-7,1,2
CN(C)Cc1nc2c(c(=O)[nH]1)C1(CCCCC1)Cc1ccccc1-2,4,18,18,i,-7,3,.,2
O=C(O)[C@@H]1CCCN1C(=O)COc1ccc2c3c(c(=O)oc2c1)CCC3,12,-12,10,.,-3,12,.,-3
O=C(O)c1ccc2c(c1)SC1=NS(=O)(=O)CCN12,1,-24,0,i,-21,2,0,-6
O=C(OCc1ccccc1)N1CCc2ccccc21,-3,-7,1,i,-5,-4,-469,-6
CCc1c(C)sc(NC(=O)C2CC2)c1C(=O)OC(C)C,7,2,-7,i,-7,0,1,0
CCOC(=O)Cc1csc(NC(=O)c2csc3c2CCCC3)n1,7,.,-4,i,-10,-7,-10,2
C=CCOc1c(CNc2cccc(C(=O)O)c2)cccc1OC,3,3,1,i,3,4,.,-5
COC(=O)c1cn(NC(=O)c2ccc([N+](=O)[O-])c(C)c2)c(=O)c2ccccc12,-8,1,1,i,.,2,6,3
Cc1ccncc1CNC(=O)c1ccccc1,.,.,6,.,-14,7,-6,.
COc1cc(/C=C/C(=O)NC(=O)c2ccccc2O)ccc1OC(C)=O,5,-5,3,i,-17,-8,.,4
CCC(=O)Nc1c(C)n[nH]c1C,-2,-12,8,i,.,6,0,3

# (next part)
SMILES,PABP FP inh,CSC inhib,MT1-MMP act inh,Rce1 inhib,Yeast UUG start,MT1-MMP act inh RFP,Env fusion inh,eIF4H inh
Cc1noc(C)c1COc1ccccc1C(=O)NCc1ccco1,.,.,3,.,-12,2,1,.
Cc1nc(NCCc2ccc(S(N)(=O)=O)cc2)c2c3c(sc2n1)CCC3,6,-6,-7,i,-13,-7,40,5
O=C(CSc1ccccc1)Nc1ccc(-c2nc3ccccc3[nH]2)cc1,-3,5,6,i,.,-1,.,-18
Clc1ccccc1-c1cnc2sc(NCc3ccc4c(c3)OCO4)nn12,.,.,-3,.,-5,-4,21,.
CC(C)c1ccc(NC2CCCN(C(=O)CCc3cnn(C)c3)C2)cc1 (configuration not stated),-12,-9,1,i,-9,4,9,-11
COc1ccccc1-c1noc2ncnc(Nc3cccc(C)c3C)c12,7,12,2,i,-13,-2,5,5
CN(C)c1ccc(NC(=O)/C=C/c2ccccc2Cl)cc1,1,49,13,i,-17,2,-70,-7
O=C(NCc1ccccc1F)C12CC3CC(CC(C3)C1)C2,.,-9,1,i,.,2,23,.
CSc1ccccc1C(=O)NC1CCCCCC1,-2,.,-2,i,1,0,-12,-7
Cc1nn(-c2ccccc2)c(N)c1Sc1cccc([N+](=O)[O-])c1,0,3,1,.,0,-5,-55,2
COC(=O)CN=C1OC(=O)N2C(=O)C3=C4[C@@H](C[C@H]5C(=O)N(c6ccccc6)C(=O)[C@H]5[C@H]4[C@@]12Cc1ccccc1)[C@H]1C(=O)N(c2ccccc2)C(=O)[C@H]1[C@H]3C,18,-2,-8,i,4,1,-21,6
C=CCn1c(O)c(C(CC)=NCc2cccnc2)c(=O)[nH]c1=O,-10,-12,0,i,-13,8,-9,3
CCOC(=O)COc1ccc2c(=O)c(-c3ccccc3)coc2c1,7,-9,0,i,-4,1,-3,-2
O=C(/C=C/c1cccc(Cl)c1)NCCCN1CCOCC1,-2,-5,0,i,16,4,12,0
Cc1ccc2c(c1)c(CC(=O)Nc1ccc(F)cc1)c(C(=O)O)n2C,-4,1,-13,i,-16,1,.,-8
O=C(c1ccc(COc2ccccc2[N+](=O)[O-])o1)N1CCCCCC1,5,.,-1,i,-12,-9,.,-2
Nc1nc(SCC(=O)NC2CCCc3ccccc32)n[nH]1 (configuration not stated),-3,-6,-1,i,.,0,7,33
CC(=O)Nc1ccc(-c2ccnc3c2CC(C)(C(=O)NCCC(F)(F)F)O3)cc1 (configuration not stated),.,.,4,.,-10,5,i,.
Cn1nc(C(F)(F)F)c(C(=O)Nc2cccc(Cl)c2)c1Cl,0,11,-1,i,-18,-2,17,-8
Cc1nnc(NC(=O)c2ccccc2-c2ccccc2C(=O)O)s1,1,-10,2,i,.,6,2,4
CCCCCN(C(=O)CCC(=O)OCC(=O)NC1CCC(C)CC1)c1c(N)n(CCCC)c(=O)[nH]c1=O (configuration not stated),.,14,-2,i,-4,1,-7,.
CCc1nn2c(=O)c(S(=O)(=O)Nc3ccc(Cl)cc3)c(C)nc2s1,-6,-9,2,i,-7,0,6,2
CC1=NS(=O)(=O)c2cc(Cl)ccc2N1,0,.,2,i,-13,1,.,-11
CN1CCC(N(C)C(=O)/C(C#N)=C/c2ccccc2)CC1,4,-8,-5,i,-14,-3,5,-3
CCNc1nc(NC(C)C)nc(Oc2ccc(=O)n(C)n2)n1,-5,-4,-1,i,.,3,15,2
CCOC(=O)C1CCN(CC(=O)Nc2cc(S(=O)(=O)N3CCCCC3)ccc2Cl)CC1,.,.,-4,.,-11,-24,39,.
O=c1cc(NCc2ccco2)c2ccccc2o1,7,.,0,i,-4,-4,.,1
COc1ccc(NC(=O)N2CCCCCC2)cc1OC,3,-27,-2,i,-12,3,-22,-4
O=C(Nc1ccc(F)c(Cl)c1)Nn1cnnc1,-13,.,-2,i,-2,5,.,5
CN(C)C(=O)c1ccc(-n2cnc3ccccc3c2=O)cc1,8,-4,-1,i,-25,0,7,-9

# Following part.
SMILES,PABP FP inh,CSC inhib,MT1-MMP act inh,Rce1 inhib,Yeast UUG start,MT1-MMP act inh RFP,Env fusion inh,eIF4H inh
CN(C)/C=N/c1cnc(C(=O)c2ccc(Cl)cc2)n1C,-6,-8,-9,i,-20,-5,.,-1
CCOc1ccc(N(CC(=O)N2CCCC2)S(=O)(=O)c2ccc(Cl)cc2)cc1,-7,-5,-4,i,-10,-1,13,4
NC(=O)COc1ccc2c3c(c(=O)oc2c1)CCCCC3,-3,.,0,i,.,2,.,-1
Cc1c(C2CC(=O)N(c3ccccc3)C2=O)[nH]n(-c2ccccc2)c1=O (configuration not stated),2,-1,9,i,1,10,.,-4
CC(c1nc2ccccc2n1Cc1ccccc1)N1CCCCC1 (configuration not stated),14,-3,-4,i,-1,-4,10,4
CCC(C)c1ccc(NC(=O)c2[nH]c(C)c(C(C)=O)c2C)cc1 (configuration not stated),5,19,-14,i,-11,-7,-18,0
Cn1cnc([N+](=O)[O-])c1Sc1ncccc1N,19,-11,6,i,-49,5,-40,6
CS(=O)(=O)N1CCCC(C(=O)N2CCN(c3cccc(Cl)c3)CC2)C1 (configuration not stated),-17,3,-8,i,.,-3,2,-2
S=C1NCCOCCOCCOCCOCCNC(=S)N2CCOCCOCCN1CCOCC2,3,2,2,i,-21,5,-1,-2
CCN1CCN(C(=O)CCc2nnc(CCc3c[nH]c4ccccc34)o2)[C@@H](C)C1=O,5,5,2,i,-17,3,3,4
COc1ccccc1NS(=O)(=O)c1ccc2oc(SC)nc2c1,-2,-1,5,i,.,-8,3,0
O=C(/C=C/c1ccccc1[N+](=O)[O-])OC1CCCCC1=O (configuration not stated),10,-10,-1,i,-12,2,-7,1
O=C(c1cc(COc2ccc(F)cc2F)on1)N1CCSCC1,-7,-2,1,i,.,-2,-30,1
CCN1CC=C2C(C#N)=C(N)C(C#N)(C#N)C(c3cc(Cl)ccc3Cl)C2C1 (configuration not stated),?,3,-80,i,-11,1,17,?
COc1cc(C2C(C#N)=C(N)N(N(C)C)C3=C2C(=O)CCC3)cc(OC)c1OC (configuration not stated),5,13,-1,i,.,5,-12,-6
COc1ccccc1CNC(=O)CCNC(=O)N1CC(=O)Nc2ccccc21,-4,-23,-1,i,-13,0,-5,-2
CC(C(=O)NC1CCCC1)N1CCN(S(=O)(=O)c2ccc(C(C)(C)C)cc2)CC1 (configuration not stated),.,.,3,.,-11,-6,-9,.
CSc1ccccc1C(=O)C1CCCN(C(=O)c2csnn2)C1 (configuration not stated),8,-6,-1,i,-8,0,-5,-5
O=C(N/N=C/c1cccnc1)c1cc(O)c(O)c(O)c1,16,-1,1,i,.,4,-2,16
Cc1ccc(NC(=O)C/C(N)=N/O)cc1C,-6,.,-2,.,-7,0,.,-8
CCc1cc(-c2n[nH]c(CCC(=O)O)c2-c2nc3ccccc3n2C)c(O)cc1O,8,0,0,i,.,5,3,6
CSc1ccccc1NC(=O)Cn1c(-c2cscn2)nc2ccccc21,-8,3,-1,i,-22,1,4,1
CCCOc1ccc(NC(=O)c2c(-c3ccccc3)noc2C)cc1,-6,-9,-1,i,-15,3,-12,4
COC(=O)[C@H]1[C@@H](C)N(CCc2cc(OC)c(OC)c(OC)c2)C(=O)N[C@H]1c1ccccc1,.,24,1,i,14,-2,3,.
COc1ccc(NC(=O)C/C(C)=N/NC(=O)C(=O)Nc2cccc(Cl)c2C)c(OC)c1,0,-17,4,.,.,3,19,-2
CC(=O)N[C@@H](Cc1c[nH]c2ccccc12)C(=O)OCc1cc(C(F)(F)F)cc(C(F)(F)F)c1,.,-5,2,.,-10,3,-3,.
